# Screens deposited in PubChem by Broad Institute.
# DUX4 inh: inhibitors of DUX4-driven ZSCAN4 reporter expression, primary screen, 293T cells, Gaussia and Italica luciferase; 0.8% of 37,000 active; 293T-iDUX4 ZSCAN4-Gaussia luciferase reporter, 24 h; active compounds read low; activity change, negative = inhibition, % (concentration not given with the values); AID 1224904, 2016;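 active = -10% or lower and over 25 points stronger than a control reporter; inconclusive = -10% or lower with a smaller gap; inactive = above -10%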;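 note: 0% = median of neutral control wells and -100% = median of positive control wells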
# DUX4 inh difference: also measured in DUX4 inh; calls as there; Gaussia minus Italica difference, %; measured here: selective DUX4 reporter inhibition;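 worked out from the two reporters; negative = selective loss of the DUX4 reporter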
# DUX4 inh control: further read-out of DUX4 inh, marked with its call; activity change, negative = inhibition, %; measured here: Italica tet-on control reporter;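 0 = neutral control and -100 = positive control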
# Numbers without * were called inactive; u = inconclusive; x = no result given. Not all compounds are listed (hit frequency here may not be typical).
SMILES,DUX4 inh,DUX4 inh difference,DUX4 inh control
C/C=C/c1ccc([C@H]2[C@H](CO)N(S(=O)(=O)Cc3ccccc3)C23CN(C(=O)C2CC2)C3)cc1,-2,1,-3.1
CC=Cc1ccc2n(c1=O)C[C@@H]1[C@@H](CO)[C@H](C(=O)NCC3CCCCC3)[C@H]2N1C(=O)CC (mixture of isomers),2,-18,21
N#C[C@H]1[C@@H](c2ccc(C3=CCCC3)cc2)[C@@H](CO)N1C(=O)c1cccc(F)c1,-5,-1,-4.3
C[C@H](NC(=O)C[C@H]1C[C@@H]2c3cc(NC(=O)Nc4ccc(C(F)(F)F)cc4)ccc3O[C@@H]2[C@H](CO)O1)c1ccccc1,u,x,x
C/C=C/c1ccc([C@@H]2[C@H](C#N)N(C(=O)Cc3ccccn3)[C@H]2CO)cc1,-1,-1,0.3
CC(=O)N1[C@@H]2c3ccc(-c4ccccc4)c(=O)n3C[C@H]1[C@H](CO)[C@H]2C(=O)N1CCCCC1,1,2,-1.5
O=C(C[C@@H]1C[C@@H]2c3cc(NC(=O)CC4CC4)ccc3O[C@@H]2[C@H](CO)O1)NCC(F)(F)F,8,-2,9.9
Cc1nc(N2[C@H](C#N)[C@H](c3ccccc3)[C@H]2CO)sc1C,0,-1,1.1
C[C@H](CO)N1C[C@H](C)[C@@H](CN(C)C(=O)CC2CC2)Oc2ncc(-c3ccc(C#N)cc3)cc2C1=O,1,-1,1.7
C/C=C/c1ccc([C@@H]2[C@H](CO)N(C(C)=O)C23CN(C(=O)c2ccccc2)C3)cc1,2,0,2.7
CN1[C@H](C(=O)NCc2ccccn2)[C@@H](CO)[C@@H]2Cn3c(ccc(-c4ccc(F)cc4)c3=O)[C@@H]21,-1,0,-1.1
COc1cccc(NC(=O)N(C)C[C@@H]2OCc3ccccc3-c3ccccc3C(=O)N([C@H](C)CO)C[C@@H]2C)c1,-2,2,-4.8
O=C(C[C@H]1CC[C@@H]2[C@H](COC[C@H](O)CN2Cc2cccc(C(F)(F)F)c2)O1)NCc1ccc(Cl)cc1,-10,-3,-7.2
Cc1ccc(-c2ccccc2[C@@H]2[C@H](C#N)N(S(C)(=O)=O)[C@H]2CO)cc1,0,-12,12
O=C(C[C@@H]1CC[C@H](NS(=O)(=O)c2ccccc2F)[C@H](CO)O1)NCCCN1CCOCC1,6,6,-0.4
CO[C@@H]1CN(C)C(=O)c2ccc(NC(C)=O)cc2OC[C@@H](C)N(Cc2cccnc2)C[C@@H]1C,-3,-2,-1.0
COc1cccc(C(=O)N2C[C@H]3[C@@H](c4ccccc42)[C@H](CO)N3Cc2ccccc2F)c1,2,0,2.4
C/C=C/c1ccc([C@H]2[C@@H](CO)N3C(=O)CN(Cc4ccc(F)cc4)C[C@@H]23)cc1,21,3,18
COc1ccccc1-c1ccc2c(c1)O[C@H](CN(C)C(=O)c1ccncc1)[C@@H](C)CN([C@H](C)CO)S2(=O)=O,0,0,0.8
O=C(c1ccccn1)N1CC2(C1)[C@H](c1ccccc1)[C@H](CO)N2C(=O)C1CCCC1,9,8,0.5
CS(=O)(=O)N1Cc2cc(C(=O)O)nc(-c3cccc(-c4ccccc4F)c3)c2[C@@H]1CCO,-9,-6,-3.6
O=C(C[C@@H]1C[C@@H]2c3cc(NC(=O)Cc4ccncc4)ccc3O[C@@H]2[C@H](CO)O1)NCCN1CCCCC1,6,8,-2.2
O=C(CCN1CCCCC1)N[C@@H]1CC[C@@H](CCn2cc(-c3cccc(F)c3)nn2)O[C@H]1CO,2,-4,5.8
COc1ccc2c3c(n(C)c2c1)[C@@H](CO)N(C(=O)c1cccnc1)CC31CCN(S(=O)(=O)c2ccccc2)CC1,4,11,-7.2
O=C(C[C@H]1CC[C@H]2[C@@H](COC[C@H](O)CN2C(=O)Nc2ccc(C(F)(F)F)cc2)O1)NCC1CCCCC1,u,x,x
COc1ccc(C(=O)Nc2ccc3c(c2)C(=O)N(C)C[C@H](OC)[C@@H](C)CN(C)[C@@H](C)CO3)cc1,5,6,-1.4
CCC(=O)N1CC2(C1)[C@H](c1ccc(-c3ccccc3OC)cc1)[C@H](CO)N2C(C)=O,2,0,2.0
CCc1cnc(N2[C@H](C#N)[C@@H](c3ccc(C4=CCCCC4)cc3)[C@@H]2CO)s1,4,3,0.8
CN(C)CC(=O)N1[C@H](C#N)[C@@H](c2ccc(-c3ccccc3F)cc2)[C@H]1CO,1,1,-0.2
CS(=O)(=O)N1[C@H](C#N)[C@@H](c2ccc(/C=C/c3ccccc3)cc2)[C@H]1CO,4,2,2.2

# One compound at a time, as listed above.
# Record of CCC(=O)N1CC2(C1)[C@H](c1ccc(-c3ccccc3OC)cc1)[C@H](CO)N2C(C)=O = DUX4 inh: 2; DUX4 inh difference: 0; DUX4 inh control: 2.0
# Record of CS(=O)(=O)N1Cc2cc(C(=O)O)nc(-c3cccc(-c4ccccc4F)c3)c2[C@@H]1CCO = DUX4 inh: -9; DUX4 inh difference: -6; DUX4 inh control: -3.6

# Some of the entries so far, with the structure last.
DUX4 inh	DUX4 inh difference	DUX4 inh control	Structure
-5	-1	-4.3	N#C[C@H]1[C@@H](c2ccc(C3=CCCC3)cc2)[C@@H](CO)N1C(=O)c1cccc(F)c1
1	-1	1.7	C[C@H](CO)N1C[C@H](C)[C@@H](CN(C)C(=O)CC2CC2)Oc2ncc(-c3ccc(C#N)cc3)cc2C1=O
0	-12	12	Cc1ccc(-c2ccccc2[C@@H]2[C@H](C#N)N(S(C)(=O)=O)[C@H]2CO)cc1
5	6	-1.4	COc1ccc(C(=O)Nc2ccc3c(c2)C(=O)N(C)C[C@H](OC)[C@@H](C)CN(C)[C@@H](C)CO3)cc1
-1	-1	0.3	C/C=C/c1ccc([C@@H]2[C@H](C#N)N(C(=O)Cc3ccccn3)[C@H]2CO)cc1
8	-2	9.9	O=C(C[C@@H]1C[C@@H]2c3cc(NC(=O)CC4CC4)ccc3O[C@@H]2[C@H](CO)O1)NCC(F)(F)F

# Other structures:
SMILES,DUX4 inh,DUX4 inh difference,DUX4 inh control
O=C(Cc1ccccn1)N[C@H]1CC[C@H](CCNS(=O)(=O)c2cccc(F)c2)O[C@@H]1CO,u,x,x
C[C@@H]1CN([C@@H](C)CO)S(=O)(=O)c2ccc(C3=CCCCC3)cc2O[C@@H]1CN(C)C(=O)Cc1cccnc1,2,-1,3.1
COCC(=O)N1[C@@H]2c3ccc(/C=C/c4ccccc4)c(=O)n3C[C@H]1[C@H](CO)[C@H]2C(=O)N1CCCCC1,-6,-6,0.3
Cc1noc(C)c1NC(=O)N(C)C[C@@H]1Oc2ccc(N(C)C)cc2CC(=O)N([C@H](C)CO)C[C@H]1C,-4,1,-4.2
CNC(=O)C[C@H]1CC[C@H]2[C@@H](COC[C@H](O)CN2Cc2ccccc2F)O1,-1,6,-6.8
Cc1ccc(S(=O)(=O)N(C)C[C@@H]2OCCCC[C@@H](C)Oc3ccc(NC(=O)C4CCCCC4)cc3C(=O)N([C@@H](C)CO)C[C@@H]2C)cc1,4,-1,5.1
C[C@@H]1CN([C@H](C)CO)C(=O)c2c(c3ccccc3n2C)-c2ccccc2CO[C@H]1CN(C)C(=O)c1ccncc1,6,-3,8.5
CC(C)[C@H]1C(=O)N[C@@H](c2cccc(Cl)c2)CC=CC[C@H](C)Oc2ccccc2C(=O)N1C (mixture of isomers),-4,-4,0.5
CCCNC(=O)[C@H]1[C@H](CO)[C@H]2Cn3c(ccc(C4=CCCC4)c3=O)[C@H]2N1C(=O)c1cnccn1,8,10,-1.5
O=C(N[C@@H]1C=C[C@H](CC(=O)N2CCCCC2)O[C@@H]1CO)c1ccc2c(c1)OCO2,3,1,2.9
CCCNC(=O)C[C@@H]1CC[C@@H]2[C@@H](COc3ccc(NC(=O)Nc4ccccc4F)cc3C(=O)N2C)O1,3,-6,8.2
CCc1nc(N2[C@H](CO)[C@@H](c3ccccc3-c3ccccc3F)[C@@H]2C#N)sc1C,-8,12,-20
C[C@@H]1CN([C@H](C)CO)C(=O)c2cccc(N(C)C)c2O[C@H]1CN(C)C(=O)NC1CCCCC1,3,2,1.5
COc1ccc(NC(=O)N(C)C[C@@H]2Oc3ncc(C#C[C@H](C)O)cc3C(=O)N([C@@H](C)CO)C[C@H]2C)cc1,1,13,-12
C[C@@H]1CN([C@@H](C)CO)C(=O)c2cc(NC(=O)NC3CCCCC3)ccc2O[C@@H](C)CCCCO[C@H]1CN(C)Cc1ccc(C(=O)O)cc1,0,-1,0.9
COc1ccc2c3c(n(C)c2c1)[C@@H](CO)N(Cc1cccc(F)c1)CC31CCN(C)CC1,-9,-9,0.1
COCC#Cc1ccc2c(c1)O[C@@H](CN(C)CC1CCCCC1)[C@@H](C)CN([C@@H](C)CO)S2(=O)=O,4,1,2.2
CC(=O)N1CC(=O)N2[C@H](CO)[C@H](c3ccc(-c4ccc(C#N)cc4)cc3)[C@@H]2C1,13,4,9.4
COc1cccc(NC(=O)N2CC3(C2)[C@@H](c2ccccc2)[C@@H](CO)N3C(C)=O)c1,-3,-8,4.5
COC(=O)C[C@H]1CC[C@@H]2[C@H](COc3ccc(NC(=O)Cc4cccs4)cc3C(=O)N2C)O1,0,-3,3.3
O=C(C[C@@H]1CC[C@H]2[C@@H](COC[C@@H](O)CN2C(=O)c2cnccn2)O1)N1CCN(c2ccccc2)CC1,3,0,2.9
CN1c2ccc(-c3cccc(C#N)c3)cc2[C@H]2[C@H](CCN2C(=O)CN2CCOCC2)[C@H]1CO,-3,-7,3.7
CCCNC(=O)N(C)C[C@@H]1Oc2ncc(C#CCc3ccccc3)cc2C(=O)N([C@@H](C)CO)C[C@@H]1C,4,0,3.6
CCC(=O)Nc1ccc2c(c1)C(=O)N(C)C[C@H](OC)[C@H](C)CN(Cc1nccs1)[C@H](C)CO2,4,-2,6.1
C[C@H](CO)N1C[C@H](C)[C@@H](CN(C)S(C)(=O)=O)OCCCC[C@H](C)Oc2ccc(N(C)C)cc2C1=O,0,-1,0.8
COCC(=O)N1C[C@@H](C)[C@@H](OC)CN(C)C(=O)c2ccc(NC(=O)c3cc(C)on3)cc2OC[C@@H]1C,6,7,-0.7
Cc1ccccc1-c1ccc([C@@H]2[C@H]3CN(C(=O)c4ccncc4)CC(=O)N3[C@H]2CO)cc1,5,4,0.9
C[C@@H]1CN([C@@H](C)CO)C(=O)c2c(c3ccccc3n2C)-c2ccccc2CO[C@@H]1CN(C)S(C)(=O)=O,14,10,4.0
O=C(C[C@@H]1C[C@H]2c3cc(NC(=O)c4ccc5c(c4)OCO5)ccc3O[C@H]2[C@@H](CO)O1)NCc1ccccn1,10,5,4.5
Cc1cccc(-c2ccc([C@H]3[C@@H](CO)N4CCCCN(C(=O)c5ccncc5)C[C@H]34)cc2)c1,-2,-2,-0.2
O=C(C1CCOCC1)N1[C@H](CO)[C@H]2c3ccccc3NC[C@H]21,4,3,0.5
COc1ccc(S(=O)(=O)N(C)C[C@H]2Oc3c(NC(=O)C4CCOCC4)cccc3C(=O)N([C@H](C)CO)C[C@H]2C)cc1,-3,-4,1.8
O=C(C[C@H]1CC[C@@H]2[C@H](COC[C@H](O)CN2Cc2ccncc2)O1)NCc1ccccc1Cl,1,-3,4.6
C[C@@H]1CN([C@@H](C)CO)C(=O)c2cc(NS(=O)(=O)c3ccc(Cl)cc3)ccc2O[C@H]1CN(C)CC1CCCCC1,0,-10,9.8
O=C(CC(F)(F)F)N1C[C@H]2[C@@H](c3ccccc31)[C@H](CO)N2C(=O)Cc1cccnc1,3,2,0.4
COc1ccc(NC(=O)N2CCC3(CC2)CN(CC2CC2)[C@H](CO)c2c3c3ccc(OC)cc3n2C)cc1,u,x,x
COc1ccc(S(=O)(=O)N(C)C[C@H]2OCc3cnnn3CCCC(=O)N([C@H](C)CO)C[C@@H]2C)cc1,5,6,-1.7
C/C=C/c1ccc([C@H]2[C@H](CO)N3CCCCN(S(=O)(=O)c4ccc(F)cc4)C[C@@H]23)cc1,u,x,x
CC(=O)N1CC(=O)N2[C@H](C1)[C@@H](c1ccc(-c3ccc(C)cc3)cc1)[C@@H]2CO,5,0,4.6
CCS(=O)(=O)N1CCC2(CC1)CN(Cc1ccccc1OC)[C@H](CO)c1c2c2ccc(OC)cc2n1C,u,x,x
C[C@H](CO)N1C[C@H](C)[C@H](CN(C)C(=O)Nc2cccc3ccccc23)OCCCC[C@H](C)Oc2ccc(N(C)C)cc2C1=O,6,8,-1.6
CCC(=O)N1[C@H](C(=O)NC2CCCC2)[C@@H](CO)[C@@H]2Cn3c(cccc3=O)[C@@H]21,-2,0,-2.3
O=C(C1CCOCC1)N1[C@@H]2CNc3ccccc3[C@@H]2[C@@H]1CO,2,5,-2.4
Cc1noc(C)c1S(=O)(=O)Nc1ccc2c(c1)C(=O)N([C@H](C)CO)C[C@@H](C)[C@H](CN(C)Cc1ccc(C(=O)O)cc1)OCCCC[C@@H](C)O2,1,5,-3.7
CO[C@@H]1CN(C)C(=O)c2ccc(NC(=O)Nc3ccccc3F)cc2OC[C@H](C)N(Cc2ccccc2C(=O)O)C[C@H]1C,-1,-4,2.6
O=C(Nc1ccc2c(c1)[C@@H]1C[C@H](CC(=O)N3CCCCC3)O[C@@H](CO)[C@@H]1O2)C1CCOCC1,2,7,-4.3
CO[C@@H]1CN(C)C(=O)c2cc(NC(=O)C3CC3)ccc2OC[C@@H](C)N(C(=O)c2ccccn2)C[C@H]1C,1,-6,6.6
O=C(c1ccccn1)N1CC2(C1)[C@@H](c1ccccc1)[C@@H](CO)N2Cc1ccc(F)cc1,-1,4,-4.2
O=C(Nc1ccc2c(c1)[C@@H]1C[C@H](CC(=O)N3CCOCC3)O[C@H](CO)[C@@H]1O2)c1cccnc1,8,3,4.6
